# Ba CapD inh: CapD enzyme inhibition | 140,000 compounds, 0.23% hits | purified CapD enzyme, fluorescence intensity read-out; active compounds read low; some hits fall short of the stated cut | z-score (test concentration not listed);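 active means z-score under -4 in either of two replicates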;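 further: stock transfer was 100 nL into about 40 µL; score is relative to mean and spread of the plate; one replicate is shown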
# AID504770: growth inhibitors of E. coli YBA685 in a screen for V. cholerae RctB (chromosome II replication) inhibitors. E. coli YBA685 rctB-dependent plasmid, OD600 growth, 3 h; active compounds read low. z-score (no concentration beside the values). 130,000 compounds, 0.27% hits;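 active means z-score under -2 on both plates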;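 further: wells of about 30 µL received 100 nL stock; score is relative to mean and SD of the test wells; the first replicate is given; strong numbers were not always called active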
# The depositor's hits bear a star; / = no result given.
# Sample of the layout (3 entries):
SMILES,Ba CapD inh,AID504770
COc1ccc(COCC(O)CS(=O)(=O)Cc2ccccc2)cc1 (stereo not given),-0.015,-0.1
CC(C)CN(CC(C)C)S(=O)(=O)c1ccc(C(=O)O)cc1,-0.22,-0.8
O=C(COC(=O)c1n[nH]c2ccccc12)NC(c1ccccc1)c1ccccc1,2.6,-0.4

# The listing, from the first entry:
SMILES,Ba CapD inh,AID504770
COc1ccc(COCC(O)CS(=O)(=O)Cc2ccccc2)cc1 (stereo not given),-0.015,-0.1
CC(C)CN(CC(C)C)S(=O)(=O)c1ccc(C(=O)O)cc1,-0.22,-0.8
O=C(COC(=O)c1n[nH]c2ccccc12)NC(c1ccccc1)c1ccccc1,2.6,-0.4
CCOC(=O)c1sc(NC(=O)CSc2ccc(C)cc2)nc1C,0.28,0.6
CC(NC(=O)C12CC3CC(CC(O)(C3)C1)C2)c1ccccc1 (stereo not given),/,1.3
CCNC(=S)N/N=C/c1ccccc1C(=O)O,/,-1.2
O=C(c1cc(-c2ccco2)[nH]n1)N1CCN(c2cccc(Cl)c2)CC1,0.26,1.1
COc1ccnc(CS(=O)c2nc3ccc(OC(F)F)cc3[nH]2)c1OC (stereo not given),/,0.2
Cn1c(COc2cccc3cccnc23)nnc1SCC(=O)O,/,-0.65
CC(=O)Nc1ccc(C(=O)OCC(=O)N(C)C2CCS(=O)(=O)C2)cc1 (stereo not given),/,-2.2

# Compound profiles, from the list above.
# `O=C(c1cc(-c2ccco2)[nH]n1)N1CCN(c2cccc(Cl)c2)CC1` reads Ba CapD inh = 0.26; AID504770 = 1.1
# `CC(NC(=O)C12CC3CC(CC(O)(C3)C1)C2)c1ccccc1` (stereo not given) reads Ba CapD inh = /; AID504770 = 1.3

# (list continues)
SMILES,Ba CapD inh,AID504770
CC(=O)O/N=C(\N)c1ccc(-c2csnn2)cc1,-0.53,-0.75
O=C(O)c1ccc(/C=N/NC(=O)c2ccccc2CCc2ccccc2)cc1,0.2,/
CNC(=O)CCCn1c(C)c2cnn(-c3ccccc3)c(=O)c2c1C,0.54,-0.7
CCn1nc(C(=O)OCCCCN2C(=O)c3ccccc3C2=O)c2ccccc2c1=O,/,-0.7
COc1ccc2oc(C)c(C(=O)Cn3ccnc3)c2c1,-0.56,-1.6
CCCCC(=O)Nc1ccc2oc(-c3ccc(O)c(Br)c3)nc2c1,2.3,-2.8
CC1(C)CC(=NNC(N)=S)CC(C)(C)N1,0.27,-0.5
COc1cccc(NC(=O)Cn2c(=O)oc3cc(S(=O)(=O)N4CCCC4)ccc32)c1,0.37,-0.35
O=C1c2ccccc2NC(c2ccncc2)N1c1ccccn1 (stereo not given),/,1.8
O=C1CCCc2oc3c(cc(NS(=O)(=O)c4ccccc4)c4ccccc43)c21,-0.09,/
COc1ccc(CNC(=O)CSc2nc3cc(Cl)ccc3o2)cc1OC,/,-0.25
C=CCNc1ncnc2c1c(-c1ccccc1)cn2-c1ccc(OCC)cc1,-0.46,0.15
CCOC(=O)N1CCc2c(sc(N)c2C(=O)c2ccc(OC)cc2)C1,0.66,1.6
O=C(CC(=O)Nc1ccccn1)Nc1ccccn1,0.015,-0.25
O=C(OCCN1CCN(c2ncc(Cl)cc2C(F)(F)F)CC1)N1CCC2(CC1)C(=O)NCN2c1ccccc1,-0.21,/
CC1=C(C(=O)OCCc2ccccc2)C(c2cc3c(cc2Br)OCO3)C2=C(CCCC2=O)N1 (stereo not given),28,/
O=C(c1ccc2c(c1)CCC2)C1CCC1,-0.53,/
COc1ccc(-n2cc3c(c(C#N)c2=N)CC(C)(C)CC3=O)c(OC)c1,1.9,0.45
Cc1cc(NC(=O)CSc2ccccc2)no1,/,-0.45
COc1ccc(/C(=C\c2ccc(Cl)cc2)C(=O)O)cc1OC,0.36,-0.05
Nc1ccccc1C(=O)CSc1ccccn1,0.17,-1.2
O=C(c1ccc2c(c1)C1C=CCC1C(c1ccc(Cl)cc1)N2)N1CCOCC1 (stereo not given),-0.24,/
COC(=O)c1sc(=S)n(-c2cc(OC)ccc2OC)c1N,-0.005,-0.55
CSc1sc(C(=O)NNC(=O)CCCCCNC(=O)OCc2ccccc2)c2c1C1(CCC2)SCCS1,-0.79,/
CC(C)(C)OC(=O)N1CCN(C(=O)c2ccc(Oc3cccnc3)o2)CC1,-0.025,0.55
Cc1cccc(-c2noc(CCCC(N)=O)n2)c1,-1.1,2.8
O=C(CNC(=O)c1ccccc1F)OCc1nc2ccc(Cl)cc2n1CCO,/,0.35
CC(C)(C)OC(=O)N1CCCC1COC(=O)N1CCN(c2cc(C(F)(F)F)nc3cc(C(C)(C)C)nn23)CC1 (stereo not given),87,/
CN1C(=O)C2CN(CCc3ccccc3)CNC2N(C)C1=O (stereo not given),0.76,0.05
CC(C#N)OC(=O)Cn1cc(C(F)(F)F)ccc1=O (stereo not given),/,-0.3

# Arranged by SMILES length (falling): 3 of the compounds above
SMILES,Ba CapD inh,AID504770
CC(C)(C)OC(=O)N1CCCC1COC(=O)N1CCN(c2cc(C(F)(F)F)nc3cc(C(C)(C)C)nn23)CC1 (stereo not given),87,/
Cc1cccc(-c2noc(CCCC(N)=O)n2)c1,-1.1,2.8
Nc1ccccc1C(=O)CSc1ccccn1,0.17,-1.2

# Continuation:
SMILES,Ba CapD inh,AID504770
CCOC(=O)C1=C(C)NC2=C(C(=O)C(C(=O)OCC)C(c3ccccc3OC)C2)C1c1ccc(N(CC)CC)cc1 (stereo not given),-0.42,/
CCc1ccc(S(=O)(=O)Nc2ccc3oc4c(c3c2)C(=O)CC(C)(C)C4)cc1,-0.28,/
CC1=C(C(=O)Nc2nc3ccccc3s2)C(c2cccc([N+](=O)[O-])c2)C2=C(CCCC2=O)N1 (stereo not given),-0.68,/
Cc1nn(C2CCS(=O)(=O)C2)c(Cl)c1/C=C/C(=O)OCn1nnc2ccccc2c1=O (stereo not given),/,-0.35
O=C(NCCCn1ccnc1)c1ccccc1OCc1ccccc1,-0.15,-0.2
CC(=O)N/C(N)=N\c1nc(C)c2ccc(C)cc2n1,/,-0.5
Cc1ccc(-c2ccc(/C=C3\Sc4ccccc4C3=O)o2)cc1Cl,-0.7,/
Cc1nnc(SC2CCNCC2)s1,-0.39,-0.15
COc1ccc(Nc2nccc(-c3ccc(N)cc3)n2)cc1,-1.1,-0.1
Cc1cc(=O)nc2c3ccccc3n(CC(=O)N3CCCC3)n12,53,0
COc1cc(OC)nc(-c2ccc(N)cc2)n1,103,/
CCCC(NC(=O)c1ccc(Br)o1)c1nc2ccccc2[nH]1 (stereo not given),0.71,-0.25
CC(C)(O)c1cn2ccccc2n1,16,0.85
Cc1cc(S(=O)(=O)N2CCCN(S(=O)(=O)c3ccc(Cl)c(C)c3)CC2)ccc1Cl,-0.67,/
CCN(c1ccccc1)S(=O)(=O)c1ccc(Oc2ccc(-n3ccnc3)cc2)nc1,/,-0.1
CCC(=O)Nc1cc(OC)c(OC)c(OC)c1,-0.06,-0.95
O=C(Nc1ccc(Cl)cc1Cl)c1cnccn1,-0.93,/
COc1cccc(SCC2CSc3nc4ccccc4c(=O)n32)c1 (stereo not given),0.095,/
CN1CCN(c2oc(COc3ccccc3F)nc2C#N)CC1,0.2,-0.5
c1ccc(-n2nnnc2NC2CCCCC2)cc1,-0.4,2
C=CCC1CCCCC12NC(=O)N(c1ccccc1)N2 (stereo not given),0.01,-0.6
Cc1cc2cc(CNC(=O)c3cccs3)ccc2n1C,-0.81,0.55
COc1ccc2c(CNC3CCCCCC3)c(C(=O)O)[nH]c2c1,2.8,1.6
CC1CCN(C(=O)Cn2nc(-c3ccc(Cl)cc3)ccc2=O)CC1,-0.015,-0.4
CCc1nnc(NC(=O)c2ccc3c(c2)S(=O)(=O)c2ccccc2C3=O)s1,/,1
CCCN(CCC)Cn1nc(-c2ccc3c(c2)OCO3)oc1=S,/,-0.4
C=CCOc1ccc(-c2nc3c(sc(=S)n3CC=C)c(=O)[nH]2)cc1OC,-0.65,-0.5
CNC(=O)c1cccc2cccc(I)c12,1.2,-0.15
O=C1CCc2cc(S(=O)(=O)N3CCCC3)cc3c2N1CCC3,/,0
O=C(Cc1nc2ccccc2s1)c1ccc(O)cc1O,/,-0.25

# Shown bar-delimited: part of the list above.
Molecule | Ba CapD inh | AID504770
COc1ccnc(CS(=O)c2nc3ccc(OC(F)F)cc3[nH]2)c1OC (stereo not given) | / | 0.2
CCc1nnc(NC(=O)c2ccc3c(c2)S(=O)(=O)c2ccccc2C3=O)s1 | / | 1
COc1cc(OC)nc(-c2ccc(N)cc2)n1 | 103 | /
CNC(=O)CCCn1c(C)c2cnn(-c3ccccc3)c(=O)c2c1C | 0.54 | -0.7

# (cont.)
SMILES,Ba CapD inh,AID504770
CCOc1ccc2nc(NCCNC(=O)c3cc(OC)c(OC)c(OC)c3)c(C#N)cc2c1,/,-0.6
C=CCN1C(=O)/C(=C/c2ccco2)S/C1=N/c1nccs1,/,0.6
COc1ccc(-c2cnc3nc(/N=C/N(C)C)nn3c2/N=C/N(C)C)cc1,-0.68,/
N[n+]1cnn(CC(=O)c2ccc(Cl)cc2)c1,/,-0.85
O=C(SC1=NCCS1)c1cccc(Cl)c1,-0.17,0.3
O=S(=O)(NCc1ccccn1)c1ccc(Br)cc1OC(F)(F)F,-0.53,/
O=C(CCc1ccccc1)NCCN1CCN(C(=O)CCc2ccccc2)CC1,0.14,-0.25
CCOC(=O)c1cc2cccnc2nc1C,-0.34,/
COc1cc(/C=C2/C(=O)N(c3ccc(Cl)c(C(=O)O)c3)N=C2C)cc2sc(=O)oc12,0.26,/
O=C(Nc1ccc(F)cc1)c1cnc(-c2ccccc2)nc1-c1ccccc1,-0.36,/
O=C(Nc1ccc(S(=O)(=O)NCc2ccco2)cc1)c1ccc(=O)[nH]n1,/,-0.15
O=C(COc1ccccc1)Nc1ccc(-n2nncc2-c2ccccc2)cc1,0.4,0.7
CCCCCc1ccc(/C=N/NC(=O)c2ccc(OC)c(OC)c2)cc1,-0.96,/
O=C(Cn1c(=O)oc2cc(S(=O)(=O)N3CCCC3)ccc21)Nc1cccnc1,0.18,0.1
COCCN1C(=O)c2ccccc2C(C(=O)Nc2ccc3c(c2)OCCO3)C1c1c[nH]c2ccccc12 (stereo not given),-0.12,-0.35
CCOC(=O)COc1nc(-c2cccs2)cc(C(F)(F)F)c1C#N,78,/
COc1ccc(S(=O)(=O)N(C)CC(O)c2ccccc2)cc1OC (stereo not given),-0.6,/
CCc1ccc(NC(=O)C(Cc2ccccc2)n2cccc2)cc1 (stereo not given),-0.66,1
COC(=O)c1ccccc1NC(=O)CC#N,1.3,/
c1ccc(CNc2nnnn2-c2ccccc2)cc1,/,-0.5
O=S(=O)(c1ccc(F)cc1)N1CCCC1c1cccnc1 (stereo not given),-0.53,-0.6
O=C(NNC(=O)c1cnn(-c2ccc(Cl)cc2)c1C(F)(F)F)c1csc(-c2cnccn2)n1,-0.28,/
CC(C(=O)Nc1ccccc1)N(c1nccs1)S(=O)(=O)c1ccccc1 (stereo not given),/,0.35
O=S(=O)(c1ccccc1F)N1CCC2(CC1)OCCCO2,-0.56,/
O=C(CC(=O)C(F)(F)F)c1ccccc1,/,-1
N#CCC(=O)Nc1ccc(N2CCOCC2)cc1,0.2,1.5
NC(=O)c1oc2ccccc2c1NC(=O)C1COc2ccccc2O1 (stereo not given),/,-0.2
CC1=C(C(=O)Nc2ccccc2)C(c2cccs2)C(C#N)=C(SCC(N)=O)N1 (stereo not given),3.5,-0.85
N#CC1=C(N)OC2=C(COc3ccc(F)cc32)C1c1ccc(Cl)cc1 (stereo not given),18,0.65
CCC(Oc1ccc(C(C)(C)CC)c(C)c1)C(=O)O (stereo not given),-0.095,-0.65
CCN(CC)C(=O)C1Sc2nnc(-c3ccccc3)n2NC1c1ccccc1 (stereo not given),-0.45,2
O=C(CN(c1ccccc1)S(=O)(=O)c1ccccc1)N1CCCC1,0.17,1.9
COCc1nn2cc(-c3ccc(Br)cc3)nc2s1,-0.72,-0.8
CN(C)C(=O)c1ccc(-c2nnc(OCc3nc4ccccc4n3C)c3ccccc23)cc1,0.15,/
CN(C)/C=N/c1sc2c(c1C#N)CCCC2,/,-0.35
CCCNC(=O)C1CCCN1 (stereo not given),/,0.65
CN(C(=S)Nc1cccnc1)c1ccc(O)cc1,/,-0.05
Cc1ccc(Sc2c(C(=O)NCc3ccco3)[nH]c3ccccc23)cc1,0.065,1.1
Cc1ccc2c(c1)-c1c(ssc1=S)C(C)(C)N2C(=O)C1CC1,0.25,/
O=C(O)CCCOc1ccc(Cl)cc1,/,-0.85
O=C(c1cccc(Cl)c1)N1CCOCC1,-0.085,0.35
Cc1cc(C)cc(N2C(=O)CC(n3ccnc3)C2=O)c1 (stereo not given),-0.38,-0.4
CN(C)CCOC(=O)CC12CC3CC(C1)CC(CC(=O)OCCN(C)C)(C3)C2,/,0.7
Cc1cc(C)n2nc(S(=O)(=O)Nc3ccccc3C)nc2n1,0.32,-0.25
O=C(O)CC1SC(=Nc2cccc(C(F)(F)F)c2)NC1=O (stereo not given),14,2
O=C(CCn1c(=O)oc2ccccc21)N1CCc2ccccc21,0.63,0.5
COC(=O)c1ccc(N)s1,/,-2
O=C(CN1C2=NCCN2c2ccccc21)c1ccc([N+](=O)[O-])cc1,0.12,/
N#Cc1cccc(Nc2ncnc(N)n2)c1,0.045,/
CC(C)c1ccc(NC(=O)c2ccc(-c3csnn3)cc2)cc1,0.22,0

# Next results:
SMILES,Ba CapD inh,AID504770
O=[N+]([O-])c1cc(C(F)(F)F)ccc1NCCO,-2,/
O=S(=O)(Nc1cccc2ccccc12)c1cccs1,2.5,-0.65
O=C(Nc1ccc(Cl)c(Cl)c1)c1cc2n(n1)C(C(F)(F)F)CC(c1ccc3c(c1)OCO3)N2 (stereo not given),0.19,/
CCCN(C(=O)Nc1ccccc1OC)C1CCN(C)CC1,-0.23,/
CCOc1ccccc1C(=O)NCc1nc(-c2ccccc2)no1,0.34,0
O=C(NC1CCCC1)c1c(O)nc2ccccn2c1=O,74,-0.4
COc1ccc(-n2ccnc2SCC(=O)NCCc2ccccc2)cc1,-0.98,2.4

# Compound activity: PubChem BioAssay, ICCB-Longwood Screening Facility, Harvard Medical School

# Compounds were not picked by outcome; any-hit rate near 0.41%.
